Source: PubChem BioAssay (National Center for Advancing Translational Sciences (NCATS))
A488 fluor – qHTS Assay for Spectroscopic Profiling in A488 Spectral Region; AID 591, 2007; compound autofluorescence, A488 spectral region, dye equivalency; active compounds read high; max dye equivalency, M; 59,000 compounds, 0.1% hits; active = above 10 nM dye equivalent; inconclusive = 1 to 10 nM; inactive = 1 nM or less; about half of its hits are not listed in these tables;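 further: highest value over a series up to 38 µM; compound alone in buffer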
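Compounds pin-transferred into 100 mM Tris buffer, pH 8.0, incubated 15 min at room temperature, then imaged with 480 nm excitation/540 nm emission filters. Fluorescence converted to Alexa 488 dye-equivalent concentration via an on-plate six-point A488 standard curve.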
A647 autofl – qHTS Assay for Spectroscopic Profiling in A647 Spectral Region | Compound fluorescence, A647 channel (570/671 nm), Tris buffer | 59,000 tested, under 10 active | max dye-equivalent concentration, M; active means above 1 µM dye equivalent; inconclusive means 0.1 to 1 µM; inactive means 0.1 µM or less;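 further: values scaled relative to a standard on each plate; highest value over a series up to 38 µM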
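Compound fluorescence was measured in 100 mM Tris buffer, pH 8.0, after 15 min at room temperature, using 570 nm excitation and 671 nm emission filters. Signal was normalized to a per-plate Alexa 647 standard curve and expressed as dye-equivalent concentration at each compound concentration.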
TSHR agonist – qHTS Assay for Agonists of the Thyroid Stimulating Hormone Receptor; Thyrotropin receptor (Homo sapiens), P16473; HEK293-CNG-TSHR cells (CNG channel as cAMP sensor), membrane potential dye, cAMP; Potency, µM (highest dose often 57.1 µM), for inactives: at the top dose activation, hits mostly activators; 73,000 compounds, 0.48% hits; AID 926, 2007; active = well fitted activation curve of enough size with the parental cells flat; inconclusive = any curve in the parental cells; inactive = parental cells flat and receptor cells flat or falling; further: potency means the concentration at half of the fitted maximal effect; % of control where 0% means no effect; weak receptor curves with flat parental cells got no call and are not listed
Target sequence (P16473 whole entry, looked up): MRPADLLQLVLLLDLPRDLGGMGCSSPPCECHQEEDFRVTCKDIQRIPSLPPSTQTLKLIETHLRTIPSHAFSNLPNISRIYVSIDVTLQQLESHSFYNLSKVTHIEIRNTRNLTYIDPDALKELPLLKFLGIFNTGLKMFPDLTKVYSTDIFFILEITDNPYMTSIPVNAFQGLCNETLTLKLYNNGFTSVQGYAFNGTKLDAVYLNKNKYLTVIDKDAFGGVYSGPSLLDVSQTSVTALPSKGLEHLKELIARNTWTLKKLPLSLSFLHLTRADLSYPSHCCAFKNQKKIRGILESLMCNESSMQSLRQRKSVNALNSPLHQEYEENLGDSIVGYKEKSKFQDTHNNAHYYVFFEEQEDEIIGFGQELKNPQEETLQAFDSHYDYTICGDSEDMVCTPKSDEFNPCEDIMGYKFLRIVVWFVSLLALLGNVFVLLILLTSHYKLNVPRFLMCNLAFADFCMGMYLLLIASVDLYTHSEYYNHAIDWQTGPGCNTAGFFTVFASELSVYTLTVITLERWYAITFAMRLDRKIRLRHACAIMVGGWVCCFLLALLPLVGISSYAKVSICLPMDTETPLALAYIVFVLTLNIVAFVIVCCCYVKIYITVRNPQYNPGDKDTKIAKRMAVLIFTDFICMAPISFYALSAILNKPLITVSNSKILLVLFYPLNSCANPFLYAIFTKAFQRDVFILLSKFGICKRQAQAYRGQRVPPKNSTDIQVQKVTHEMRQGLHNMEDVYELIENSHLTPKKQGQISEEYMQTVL
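cAMP rise detected as CNG-channel membrane depolarization by fluorescent dye (emission 590 nm), 30 min after compound, following 60 min dye loading containing 100 uM RO 20-1724 at room temperature. Cells: TSHR/CNG HEK 293, with parental CNG HEK 293 as control.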
Resorufin fluor – qHTS Assay for Spectroscopic Profiling in Resorufin Spectral Region; AID 588, 2007; max dye-equivalent concentration, M; 59,000 compounds, 0.04% hits; Compound fluorescence, resorufin region 547/598 nm, buffer; active compounds read high; active = above 10 nM dye equivalent; inconclusive = 1 to 10 nM; inactive = 1 nM or less; a few of its hits are not listed in these tables; further: highest value over a series up to 38 µM
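Dye-equivalent concentration values derive from comparing each well's 547/598 nm fluorescence against resorufin standards included on every plate. Incubation was 15 min at room temperature in 100 mM Tris, pH 8.0.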
AID923 – qHTS Assay for Allosteric/Competitive Inhibitors of Caspase-1: Spectroscopic Profiling in AFC Spectral Region; compound fluorescence, AFC spectral region (405/520 nm); almost no hit is shown here; Potency, µM (titrated, usually from 57.5 µM), for the others: at the top dose fluorescence increase, hits mostly activators; AID 923, 2007; 75,000 compounds, 1.1% hits; active means well fitted activation curve with a large enough effect; inconclusive means small, poorly fitted or top-dose-only effect;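 further: potency means the concentration at half of the fitted maximal effect; 0% is about no effect; scaled to a free AFC standard on each plate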
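Compound autofluorescence profiled at 405 nm ex/520 nm em during kinetic caspase 1 run (50 nM enzyme, 5 uM Ac-WEHD-AFC, HEPES pH 7.5, 10 mM DTT). Titration up to 57 uM; baseline from regression intercept, normalized to AFC standard curve.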
* hit, by the source's call; i = inactive; ? = inconclusive; . = not tested or not shown; & = joins results of further samples; [ ] = another dose, or the depositor's remark. An excerpt; count on the stated rates, not on these rows.

SMILES | A488 fluor | A647 autofl | TSHR agonist | Resorufin fluor | AID923
COc1ccccc1NS(=O)(=O)c1ccccc1C#N | i | 1.8e-08 | 2% | i | 0.4%
COc1ccc(S(=O)(=O)Cc2ccc(C(=O)N3CCCC3)o2)cc1 | . | . | 8% | . | 3.8%
COc1ccc([N+](=O)[O-])c2c1CCN2C(=O)CC[C@H](N)C(=O)O | . | . | 3% | . | -0.9%
COc1cc(NS(=O)(=O)c2ccc(Br)cc2)c(OC)cc1NC(=O)c1ccco1 | i | 2.7e-09 | -14% | i | 0.9%
COc1ccc(-c2cc(C(F)(F)F)nc(SCC(=O)N3CCOCC3)n2)cc1OC | i | 5.5e-08 | 4% | i | 0.5%
CCn1c(=O)cc(SCC(=O)NCc2ccco2)c2ccccc21 | i | 9.3e-09 | -5% | i | -0.1%
CCOc1ccc(-n2nnc3c(=O)n(CC(=O)N4CCCc5ccccc54)cnc32)cc1 | . | . | -1%[11.4 µM] | . | 0.3%
CCOC(=O)c1csc(NC(=O)CSc2nnnn2-c2ccc(OCC)cc2)n1 | i | 1e-09 | 17% | i | 1.9%
COCc1cc(C)nc(SCC(=O)Nc2cccc(C)c2)c1C#N | i | 1e-09 | 21% | i | 4.5%
CCCCCN(C(=O)NC(=O)Nc1ccccc1C)S(C)(=O)=O | i | 3.7e-09 | 0% | i | -0.4%
O=C(COC(=O)c1ccc[nH]c1=O)NCC1CCCO1 (configuration not stated) | i | 3.7e-08 | 1% | i | -1.2%
CC(C)=CC(=O)NCCc1ccccc1 | i | 2.1e-08 | 3% | i | -3.6%
CC(=O)NC(C)C12CC3CC(CC(CC(=O)O)(C3)C1)C2 (configuration not stated) | i | 2.3e-08 | ? | i | -1.1%
O=C(CCN1C(=O)C2C3C=CC(C3)C2C1=O)Nc1ccc(F)cc1 (configuration not stated) | i | 1e-09 | ? | i | 0.2%
Cc1ccc(S(=O)(=O)NCCC(=O)NCc2ccc3c(c2)OCO3)cc1C | i | 6.2e-08 | 7% | i | -1.6%
Cc1cc(C(=O)CSc2nnnn2-c2ccccc2)c(C)n1CC1CCCO1 (configuration not stated) | i | 5e-09 | ? | i | 0.1%
Cn1c(=N)n(CC(=O)C(C)(C)C)c2ccccc21 | i | 2.2e-09 | 16% | i | 0.0%
NCC[C@H](N)C(=O)O | i | 1e-09 | 3%[11.4 µM] | i | -2.1%[11.5 µM]
COc1ccc(NS(=O)(=O)c2ccc(N)cc2)nn1 | i | 2.6e-08&1e-09 | 6%[25.6 µM] | i | -1.4%
CCC(OC(=O)C(NC(=O)c1ccccc1)c1ccccc1)C(=O)Nc1cc(C)on1 (configuration not stated) | . | . | 22%[11.4 µM] | . | -1.0%
CCOc1cc(C(=O)Nc2ccon2)cc(OCC)c1OCC | i | 4.3e-09 | -10% | i | -0.1%
ON1C(c2ccccc2C(F)(F)F)N(O)[C@H]2CCCC[C@H]21 (some centres not stated) | i | 9.1e-09 | 4% | i | 2.6%
COc1ccc(C2SCC(=O)N2c2c(C)n(C)n(-c3ccccc3)c2=O)cc1 (configuration not stated) | . | . | 0% | . | -0.5%
COC(=O)CCn1nnc(-c2cccs2)n1 | i | 1e-09 | -2% | i | 1.0%

Taken from above:
A647 autofl, COC(=O)CCn1nnc(-c2cccs2)n1 : 1e-09
TSHR agonist, ON1C(c2ccccc2C(F)(F)F)N(O)[C@H]2CCCC[C@H]21 (some centres not stated) : 4%

The listing continues.
SMILES | A488 fluor | A647 autofl | TSHR agonist | Resorufin fluor | AID923
CCCCC1(C)NC(=O)N(CC(=O)Nc2ccc(S(=O)(=O)N3CCOCC3)cc2)C1=O (configuration not stated) | i | 1e-09 | -4% | i | 0.1%
C[C@@]1(C(NC(=O)c2ccc(-c3ccccc3)cc2)c2ccc(Cl)cc2)C[C@H]1C1CCCCC1 (some centres not stated) | . | . | 11% | . | 0.8%
CCOC(=O)c1cnn(-c2nc(C)cc(C)n2)c1N | i | 1e-09 | ? | i | -0.9%
Cc1ccc(N(CC(=O)NCc2cccnc2)S(C)(=O)=O)cc1C | . | . | 0% | . | 1.9%
Clc1ccc(NCn2cncn2)nc1 | . | . | -19% | . | 1.6%
CCc1ccccc1Nc1nc(N)nc(COC(=O)c2cccn2C)n1 | i | 2.6e-09 | 3% | i | -0.1%
CCOc1ccc(NC(=O)COC(=O)c2cccnc2)cc1 | i | 1e-09 | 6% | i | -0.7%
c1ccc(C(c2nnnn2C2CCCC2)N2CCCCCC2)nc1 (configuration not stated) | i | 1.9e-09 | ? | i | 9.1%
CC(C)N1C(=S)SC2CS(=O)(=O)C=C21 (configuration not stated) | i | 2.3e-09 | 1% | i | -0.7%
c1ccc2c(-c3nnc4n3CCCCC4)c[nH]c2c1 | i | 1.2e-09 | 1% | i | 0.1%
CCOc1ccccc1-c1nc(-c2ccc(C)nc2OC)no1 | i | 3.7e-08 | 16% | i | 1.9%
O=C(NCC1CCCO1)c1csc2c1CCCCC2 (configuration not stated) | i | 2.5e-08 | -3%[11.4 µM] | i | -1.1%
O=c1c2ccccc2nc(-c2ccco2)n1Cc1ccccc1 | i | 1e-09 | ? | i | -1.7%
CC(=O)NCC(=O)NC(C(=O)Nc1ccc2c(c1)OCCO2)c1ccccc1 (configuration not stated) | i | 2.2e-08 | 5% | i | 1.7%
CCCCCC(=O)N1CC2(CC)CN(C(=O)CCCCC)CC(CC)(C1)C2=O | i | 2.8e-09 | . | i | .
COc1ccc(-n2nnc3c(=O)n(CC(=O)N4CCC(Cc5ccccc5)CC4)cnc32)cc1 | . | . | 1%[11.4 µM] | . | 2.0%
CCC(C)(C)n1nnnc1C(c1cc(OC)c(OC)c(OC)c1)N1CCN(c2ccccc2)CC1 (configuration not stated) | i | 1.5e-08 | 13% | i | -2.9%
COc1cc2c(cc1OC)C(C(=O)Nc1cccc(C)n1)C(c1cccnc1)N(C)C2=O (configuration not stated) | i | 2.6e-08 | 1% | i | 1.7%
COc1cc(OC)cc(C2C(C#N)=C(N)Oc3n[nH]c(-c4cccnc4)c32)c1 (configuration not stated) | i | 1e-09 | -1% | i | 6.5%
Cc1cc(C)nc(NC2=NCC(=O)N2c2ccccc2)n1 | i | 4.1e-08 | . | i | .
O=S(=O)(NCc1cccnc1)c1ccc(Br)s1 | i | 1e-09 | -5% | i | -1.0%
Cc1ccc(OCC(O)Cn2c(NCCc3ccccc3)nc3c2c(=O)[nH]c(=O)n3C)cc1 (configuration not stated) | i | 1.9e-08 | -8% | i | -3.3%
COc1cc2ccc([C@H](C)NCC#N)cc2cc1OC | i | 3e-09 | 3%[11.4 µM] | i | -2.5%[11.5 µM]
O=C(NCc1cccnc1)C1CCCN(S(=O)(=O)c2ccc(Br)cc2)C1 (configuration not stated) | i | 3.2e-08 | -16% | i | -0.5%
c1coc(CNC2CCCCCCC2)c1 | i | 2.8e-08 | 16% | i | 1.0%
O=C(CCN1C(=O)C2C3C=CC(C3)C2C1=O)Nc1c(F)cccc1F (configuration not stated) | i | 1e-09 | -2% | i | 1.1%
CS(=O)(=O)c1ccc2nc(NC(=O)C3CCCCC3)sc2c1 | . | . | -9% | . | 0.0%
CCOC(=O)C1(CCSC)NC(c2ccco2)C2C(=O)N(CC)C(=O)C21 (configuration not stated) | i | 5.8e-09 | 10% | i | -2.3%
COc1ccc(-c2c3c([nH]c(=S)c2C#N)CCC3)cc1 | i | 1.1e-09 | . | i | .
O=C(CC1NC2CCCCC2NC1=O)Nc1ccc2c(c1)OCO2 (configuration not stated) | i | 3.1e-08 | -4% | i | -0.8%
O=C(O)[C@H]1CCc2ccc3ccccc3c2[C@H]1c1cccc2ccccc12 | i | 1.5e-08 | 12%[11.4 µM] | i | -0.9%[11.5 µM]
Cc1oc(C)c(C(=O)O)c1COc1ccc(C(=O)O)cc1 | i | 1e-09 | -2% | i | 0.1%
O=c1[nH]c(CSc2nnc(-c3ccncc3)n2Cc2ccco2)nc2ccccc12 | i | 1e-09 | 1% | i | 0.7%
O=C(c1cc(-c2ccc(Cl)c(Cl)c2)on1)N1CCCCC1 | i | 3.8e-09 | -3% | i | 2.8%
Cn1c(=O)n(CC(=O)N2CCN(c3nnc(-c4ccccc4)c4ccccc34)CC2)c2ccccc21 | i | 2.1e-08 | 10% | i | 1.7%
CN1CCN(CCCNC(=O)C2CC(=O)N(C3CCCCC3)C2)CC1 (configuration not stated) | i | 1e-09 | 0% | i | 0.3%

Grouped by structure, the entries above containing a cyano group
SMILES | A488 fluor | A647 autofl | TSHR agonist | Resorufin fluor | AID923
COc1ccccc1NS(=O)(=O)c1ccccc1C#N | i | 1.8e-08 | 2% | i | 0.4%
COCc1cc(C)nc(SCC(=O)Nc2cccc(C)c2)c1C#N | i | 1e-09 | 21% | i | 4.5%
COc1cc(OC)cc(C2C(C#N)=C(N)Oc3n[nH]c(-c4cccnc4)c32)c1 (configuration not stated) | i | 1e-09 | -1% | i | 6.5%
COc1cc2ccc([C@H](C)NCC#N)cc2cc1OC | i | 3e-09 | 3%[11.4 µM] | i | -2.5%[11.5 µM]
COc1ccc(-c2c3c([nH]c(=S)c2C#N)CCC3)cc1 | i | 1.1e-09 | . | i | .

More entries:
SMILES | A488 fluor | A647 autofl | TSHR agonist | Resorufin fluor | AID923
COC(=O)n1c(SC)nc2ccccc21 | i | 1e-09 | 7% | i | 1.5%
COC(=O)C(C)n1cnc2c(cnn2-c2ccc(Cl)cc2)c1=O (configuration not stated) | i | 8.9e-09 | 9% | i | -0.7%
Cc1ccc(CN(C)C(=O)c2ccccc2Oc2ccccc2)o1 | i | 8.5e-09 | ? | i | 2.3%
COCCn1c(N)c(NCc2ccccc2)c(=O)n(CC(=O)Nc2cc(C)ccc2C)c1=O | i | 2.5e-08 | 6% | i | 0.2%
COc1ccccc1-c1cn[nH]c(=S)n1 | i | 1e-09 | -1% | i | -1.0%
O=C1c2ccc(-c3nc4ccccc4o3)cc2C(=O)N1Cc1cccnc1 | i | 3.2e-09 | . | i | 0.9%
CCc1cc2c(nc1CC)CCN(CC/C(C)=N/O[C@@H]1O[C@H](COC(C)=O)[C@H](OC(C)=O)[C@H](OC(C)=O)[C@H]1OC(C)=O)C2 | . | . | -4%[11.4 µM] | . | 0.9%[11.5 µM]
COc1ccccc1-n1c(SCC(N)=O)nnc1-c1ccccc1 | i | 1.6e-08 | ? | i | 0.5%
COCCCN1C(=O)C(=O)/C(=C(/O)c2ccc(OC)cc2)C1c1ccc(O)c(OC)c1 (configuration not stated) | i | 9.1e-09 | 0% | i | -0.6%
O=S1(=O)N=C(Nc2nc3c(s2)CCCC3)c2ccccc21 | i | 1e-09 | -8% | i | 0.4%
CC(=O)NC12CC3CC(C1)CC(C(=O)Nc1nccs1)(C3)C2 | i | 8.9e-09 | -2% | i | 0.0%
COC(=O)C(C(=O)OC)C1O[C@@]23COCCC2(C)C3c2ccccc21 (some centres not stated) | . | . | 19%[11.4 µM] | . | -2.1%[11.5 µM]
CCc1ccccc1NC(=O)C(Cc1cccc(OC)c1OC)c1nn[nH]n1 (configuration not stated) | i | 6e-08 | 21% | i | -0.5%
Cc1nc(NCc2ccccc2)c(C(N)=O)c2c1COC(C)(C)C2 | i | 3.7e-08 | . | i | .
